VACV Venus inh = inhibitors of vaccinia virus (Venus reporter); Vaccinia virus Venus reporter expression, fluorescence; actives 0.46% (n = 330,000); AID 720580; Potency, µM (top dose mostly 36.5 µM), without a hit: top-dose activity change, negative = inhibition, usual class: inhibitors; active means well fitted inhibition curve with a large enough effect; inconclusive means small, poorly fitted or top-dose-only effect; inactive means no such curve, though single readings can be large or run the other way; tested in A549 cells; note: nearly all actives have a fitted effect of over 30% in size; inactives centre near -10
Vaccinia mCherry = vaccinia inhibition (mCherry reporter) | Vaccinia virus mCherry reporter infection, fluorescence; about a quarter of the inactives have no number | Potency, µM (top dose mostly 36.5 µM), for the others: top-dose activity change, negative = inhibition, hits mostly inhibitors | actives 0.63% (n = 310,000) | AID 720579; active = well fitted inhibition curve with a large enough effect; inconclusive = small, poorly fitted or top-dose-only effect; inactive = no such curve, though single readings can be large or run the other way; tested in A549 cells; note: nearly all actives have a fitted effect of over 35% in size; inactives centre near -10
Starred values were filed as active, the others as inactive; i = inactive; ? = inconclusive; nt = not tested or not shown; & = joins results of further samples; [ ] = remark or other dose. % is set by controls: 0 for no effect and ±100 for the full control effect; potency is the fitted concentration of half-maximal effect.

SMILES	VACV Venus inh	Vaccinia mCherry
Cc1cccc(N(CC(=O)Nc2ccccc2-c2ccccc2)S(=O)(=O)c2ccccc2)c1C	-25%	?
CCCC(c1nnnn1Cc1ccccc1)N1CCN(c2ccccc2OC)CC1 (centres undefined)	-9%	nt
CNc1nc(Cl)nc(NC(C)(C)C)n1	-15%	nt
CCCCn1c(SCC(=O)Nc2cc(C)on2)nnc1-c1cccnc1	-5%	-9%
COc1ccc(S(=O)(=O)NCc2cccnc2)cc1C(=O)Nc1ccccc1	-8%	-12%
CCCC(=O)Nc1nc2c(s1)CC(C(C)(C)C)CC2 (centres undefined)	-14%	-21%
COc1ccc(C(=O)N(Cc2ccc(N(C)C)cc2)C2CCS(=O)(=O)C2)cc1 (centres undefined)	-7%	-13%
Cc1coc2c(O)cc3c(c12)OC1(N2CCCCC2)C(=O)NCCCC31 (centres undefined)	-29%	-19%
CC/C(=N/NC(=O)c1ccccc1)c1ccc(OCCN2CCOCC2)cc1	-8%	-20%
COc1ccc(NC(=S)Nc2ccc(OCc3ccccc3)cc2)c(OC)c1	-13%	-4%
Cc1nn(C)c(C)c1Sc1ccc(Br)cc1	-15%	nt
Cc1noc(C)c1COC(=O)[C@@H](NC(=O)c1ccccc1Cl)C(C)C	0%	i
CCN(CC(=O)Nc1c(F)cccc1F)C(=O)c1ccc(S(=O)(=O)N2CCCC2)cc1	-1%	-14%
S=C1NCCN1CC1CCN(CC2CCCC2)CC1	-6%	-2%
COc1cc(OC)cc(C(=O)NCC(=O)OCc2nc3ccccc3s2)c1	0%	-9%
COc1ccc(Oc2c(Cl)cnn(-c3ccc(F)cc3)c2=O)cc1	-8%	nt
CC(=O)N(Cc1ccccn1)Cc1ccco1	-10%	-5%
Cc1c(NS(=O)(=O)c2ccc(F)cc2)c(=O)n(-c2ccccc2)n1C	1%	-10%
CCOC(=O)c1ccc(NC(=O)c2cc3c(s2)CCC3)cc1	2%	15%
O=c1[nH]c(NCCO)nc2ncn(Cc3ccccc3)c12	8%	8%
CC(=O)c1c(C)nc2ccc(Br)cc2c1-c1ccccc1	-17%	i
COc1ccccc1C1c2ccc3ccccc3c2Oc2ncn(CCN(C)C)c(=N)c21 (centres undefined)	?	-20%
Cc1cc(NS(=O)(=O)c2ccc(NC(=O)COc3ccc(Cl)c(C)c3)cc2)no1	-9%	i
COc1ccc(CNC(=O)C2=CC(c3cccc(OC)c3)=NS(=O)(=O)N2C)cc1	-7%	-4%
CCOC(=O)C1(CC2CC2)CCN(C(=O)c2cc(OC)nc3ccccc23)CC1	-8%	i
NC(=O)C1CCN(Cc2nc3cc(Cl)ccc3c(=O)[nH]2)CC1	-19%	?
COc1ccc2[nH]c3c(c2c1)CCN1C(=O)C(CC(=O)NCCc2ccccn2)C[C@H](C(=O)N2CCCCC2)[C@@]31C (some centres undefined)	-17%	i
COc1ccc2c(c1)c1c(c(=O)n(Cc3ccccc3)c(=O)n1Cc1ccccc1)n2C	-1%	-8%
CCc1cccc(NC(=O)CCNS(=O)(=O)c2cccc3nonc23)c1	-2%&-5%	-3%&-2%
COc1cc(Cl)cc(C2NC(=S)NC(c3ccccc3)=C2C(C)=O)c1OCC(=O)O (centres undefined)	13%	3%
O=C(CSC1=Nc2ccccc2C2=NC(Cc3ccccc3)C(=O)N12)Nc1ccccc1C(F)(F)F (centres undefined)	-11%	i
COc1ccc(Br)cc1[C@H]1[C@@H]2C=CCC[C@@]2(C)C(=O)N1Cc1ccccc1	-11%	i
CCC(CO)Nc1ncnc2onc(-c3ccc(F)cc3)c12 (centres undefined)	-12%	i
CCN1CCN(Cc2ccc(NC(=O)c3ccc(C)c(NC(=O)c4cc(-c5ccc(Br)cc5)n[nH]4)c3)cc2C(F)(F)F)CC1	10µM*	-26%
Cc1nc2ccccc2n1C(C)c1nc2ccccc2n1CC(=O)c1ccc(OC(F)(F)F)cc1 (centres undefined)	-5%	-8%
O=C(Cc1ccc2ccccc2c1)NC(Cc1ccccc1)C(=O)O (centres undefined)	-2%	-7%
CCCCNC(=O)c1ccc(NS(=O)(=O)c2ccc3[nH]c(=O)[nH]c3c2)cc1	-1%	i
CCN(CC)c1nc(C#N)nc(N2CCOCC2)n1	-24%	-13%
COc1cc(CN2CCN(S(=O)(=O)c3ccc(NC(C)=O)cc3)CC2)cc(OC)c1O	-9%	-1%
CC1CCCC(NC(=O)COC(=O)c2ccccc2Sc2ccccc2C#N)C1C (centres undefined)	-8%	-1%
Cc1cn([C@H]2C[C@H](O)[C@@H](CCC(=O)NCCCc3ccccc3)O2)c(=O)[nH]c1=O	3%	4%
CCCN1Cc2cccc(C(=O)N3CCN(c4ccc(F)cc4)CC3)c2C1=O	-2%	-6%
CCC(C)(C)NC(=O)C(c1cccn1C)N(C(=O)Cn1nnc2ccccc21)c1ccc(OC)cc1 (centres undefined)	-10%	-22%
COc1ccccc1N1C(=O)[C@@H]2[C@H](C1=O)[C@H](C(=O)c1ccc(OC(C)=O)cc1)N1N=CC=C[C@@H]21	1%	-13%
CCNc1ncnc2c1cnn2C1CCCCO1 (centres undefined)	-11%	i
COc1ccc(CNC(=O)COC(=O)c2cccc(S(=O)(=O)N3CCOCC3)c2)cc1	-2%	i
O=C(NCCCN1CCCC1)c1ccc2c(Cl)c3c(nc2c1)CCCC3	?	-17%
CC(C)C(NS(=O)(=O)c1cccc2nsnc12)C(=O)NCc1ccc2c(c1)OCO2 (centres undefined)	-8%	-1%
Cc1cc(F)ccc1NCc1ccncc1	-5%	i
COC(=O)Cc1cc(=O)n2[nH]c(C)c(-c3ccccc3)c2n1	-9%	nt
CCCCNC(=O)CSc1nc2cc3c(cc2c(=O)n1CCCC(=O)NCCc1ccc(OC)c(OC)c1)OCO3	-12%&-9%	-6%&-12%
Cc1cn2c(=O)cc(COc3ccccc3NC(=O)c3ccc(C(C)(C)C)cc3)nc2s1	-23%	-27%
COc1ccccc1NC(=O)C(=O)Nc1ccc2c(c1)N(C(=O)C1CC1)CCC2	-11%	i
O=C(c1cccc([N+](=O)[O-])c1)N(c1ccccn1)c1ccccn1	-2%	-14%
CCN1/C(=C\c2ccc3ccccc3[n+]2CC)Sc2cc(C)ccc21	nt	?
Cc1ccc(S(=O)(=O)N(CCc2ccccc2)CC(=O)Nc2ccc(Br)cc2)cc1	-14%	-21%
Cc1ccc(C(O)Cn2cc([N+](=O)[O-])nc2C)cc1 (centres undefined)	-13%	0%
COc1ccc(-c2ocnc2C(=O)N2CCN(C(c3ccccc3)c3ccccc3)CC2)cc1	-3%	-28%
Cc1cccc2cc3c(NC(=O)C(C)C)nn(C)c3nc12	-25%	nt
CCOC(=O)c1sc2ncn(CC(=O)Nc3ccc(OCC)cc3)c(=O)c2c1C	-18%	-19%

Part of the list above in order of number of heavy atoms, highest first:
SMILES	VACV Venus inh	Vaccinia mCherry
CCCCNC(=O)CSc1nc2cc3c(cc2c(=O)n1CCCC(=O)NCCc1ccc(OC)c(OC)c1)OCO3	-12%&-9%	-6%&-12%
COc1ccccc1N1C(=O)[C@@H]2[C@H](C1=O)[C@H](C(=O)c1ccc(OC(C)=O)cc1)N1N=CC=C[C@@H]21	1%	-13%
Cc1cn2c(=O)cc(COc3ccccc3NC(=O)c3ccc(C(C)(C)C)cc3)nc2s1	-23%	-27%
COc1ccc(CNC(=O)COC(=O)c2cccc(S(=O)(=O)N3CCOCC3)c2)cc1	-2%	i
Cc1ccc(S(=O)(=O)N(CCc2ccccc2)CC(=O)Nc2ccc(Br)cc2)cc1	-14%	-21%
COc1ccccc1NC(=O)C(=O)Nc1ccc2c(c1)N(C(=O)C1CC1)CCC2	-11%	i
O=C(NCCCN1CCCC1)c1ccc2c(Cl)c3c(nc2c1)CCCC3	?	-17%
CCN1/C(=C\c2ccc3ccccc3[n+]2CC)Sc2cc(C)ccc21	nt	?
O=C(c1cccc([N+](=O)[O-])c1)N(c1ccccn1)c1ccccn1	-2%	-14%
COC(=O)Cc1cc(=O)n2[nH]c(C)c(-c3ccccc3)c2n1	-9%	nt
Cc1cccc2cc3c(NC(=O)C(C)C)nn(C)c3nc12	-25%	nt
Cc1ccc(C(O)Cn2cc([N+](=O)[O-])nc2C)cc1 (centres undefined)	-13%	0%
CCNc1ncnc2c1cnn2C1CCCCO1 (centres undefined)	-11%	i
Cc1cc(F)ccc1NCc1ccncc1	-5%	i

The results go on.
SMILES	VACV Venus inh	Vaccinia mCherry
O=C(Cn1cnc([N+](=O)[O-])n1)N/N=C/c1cccc2ccccc12	-15%	-4%
Cc1ccc(Oc2cc(NN3CCCCC3)c([N+](=O)[O-])cc2[N+](=O)[O-])c([N+](=O)[O-])c1	-8%	-2%
COc1ccc(-c2cccc(NS(=O)(=O)c3cc([N+](=O)[O-])ccc3C)c2)nn1	-9%	-10%
Cc1[nH]n2c(=O)cc(C(C)(C)C)nc2c1-c1ccccc1	?	10µM*
O=C(/C=C/c1ccco1)Oc1cccc2cccnc12	?	-26%
Cc1c(C(=O)OCc2ccccc2)[nH]c2c1C(=O)CC(c1ccc(Cl)cc1)C2 (centres undefined)	-7%[7.34 µM]	-6%[7.34 µM]
CCOC(=O)c1sc(NC(=O)Nc2ccccc2F)nc1C	-18%	-21%
CCN(CC)S(=O)(=O)c1ccc(N2CCOCC2)c(NS(=O)(=O)c2ccc(C(C)C)cc2)c1	-6%	-9%
COc1ccc(NC(=O)CSc2nnc(Cn3c(=O)sc4ccccc43)n2C)c(OC)c1	-4%	-4%
CC(C)OCCCNC(=O)c1ccc(NC(=O)C2CCCO2)cc1 (centres undefined)	-12%	-8%
CCC(CC)c1nn2c(=O)cc(COc3ccc(NC(=O)c4cccc(C)c4)cc3)nc2s1	-2%	6%
Cc1nc2ccccn2c1C(=O)NC1CCCCC1	-13%	-9%
CCOc1ccc(NC(=O)Cn2c(=O)n(-c3ccccc3)c(=O)c3c4c(sc32)CCCC4)cc1	-4%	-3%
CC1CCC(NCCc2ccc3c(c2)OCO3)CC1 (centres undefined)	-6%	-1%
Nc1[nH]c(C(=O)c2ccccc2)c(-c2ccncc2)c1C(=O)NCc1cccc2ccccc12	-25%	-25%
CC(C)(C)c1ccc(/C=N/NC(=O)C(=O)NCCCN2CCOCC2)cc1	-7%	-17%
Cc1ccc(S(=O)(=O)N2CCCc3cc(NS(=O)(=O)c4ccc(C)c(C)c4)ccc32)cc1	-14%	-7%
Cc1ccc(-c2sc(-c3cccnc3)nc2CC(=O)O)cc1	-3%	i
COc1ccc(NC(=O)CN2C(=O)NC3(CCCc4ccccc43)C2=O)c(OC)c1 (centres undefined)	-24%	-3%
CCCCN(C(=O)CSCc1ccc(C)cc1)c1c(N)n(CCC)c(=O)[nH]c1=O	-10%	-19%
CC(C)CNC(=O)Nc1ccc(F)c(Cl)c1	-5%	4%
COc1ccc(C(C(=O)NC2CCCC2)N(C(=O)c2ccoc2C)c2cc(C)cc(C)c2)cc1 (centres undefined)	-6%	-10%
COc1ccc(-c2csc3ncnc(N4CCN(S(=O)(=O)c5ccc(Cl)s5)CC4)c23)cc1	-21%	?
COc1cc(OC)c(NC(=O)Nc2ccc(OC)c(OC)c2)cc1Cl	-14%	i
Cc1cc2nc3n(c2cc1C)CC1CC(C(=O)NCCc2cccs2)N(C)C31 (centres undefined)	-17%	i
Cc1cccc(C)c1OCc1nc2c3cnn(-c4cccc(F)c4)c3ncn2n1	-13%[7.34 µM]	-8%[7.34 µM]
COc1ccc(C(=O)/C=C/c2cc(OC)c(O)c(OC)c2)c(F)c1	178%[activator]	?
CCOC(=O)C(C)N(c1ccccc1Cl)S(C)(=O)=O (centres undefined)	-1%	i
COc1cccc(NC(=O)C(C)C)c1	-1%	-16%
CC(C)NC1C2CCC(CC2)C1(O)c1ccc(Cl)c(Cl)c1 (centres undefined)	-18%	i
Cc1ccc(NC(=O)C2CCCN2C(=O)Oc2ccccc2)cc1 (centres undefined)	-23%	nt
O=S(Cc1ccc(Cl)cc1)c1ccccc1 (centres undefined)	-20%	i
CC(C)(C)n1cnc2cc(NCc3ccc(Br)cc3)ccc21	-18%	-17%
O=[N+]([O-])c1cc(-c2nc(-c3ccncc3)no2)ccc1NCc1ccccc1	-10%	-19%
CNC(=O)C1CCC(Cn2c(=O)[nH]c3ccsc3c2=O)CC1 (centres undefined)	-8%	-11%
O=C(Nc1ccc2c(c1)OCO2)c1cc(C2CCCCN2C(=O)c2ccc3c(c2)CCO3)on1 (centres undefined)	-30%	i
CCc1ccc(NC(=O)CSc2nc(=O)n(CCCN3CCOCC3)c3c2CCCC3)cc1	-17%	i
CCOC(=O)c1c(-c2ccccc2)csc1N1C(=O)Nc2ccccc2N1O	-3%	i
COc1ccccc1Nc1c2c(nc3ccc(NC(=O)c4cccc(OC)c4OC)cc13)CCCC2	-13%[7.34 µM]	-12%[7.34 µM]
Cc1cccc(NS(=O)(=O)c2cc(C(=O)N3CCCC3)ccc2Cl)c1	-10%	-13%
Cc1c(Br)cccc1NC(=O)C1(C)CCN1C(C)C (centres undefined)	6%	33%[activator]
CN1C/C(=C/c2cccnc2)C(=O)/C(=C/c2cccnc2)C1	?	?
O=C(NCC(c1cccnc1)N1CCOCC1)c1cccs1 (centres undefined)	-10%	-6%
COc1ccccc1CNC(=O)c1ccc(N2CCCC2)c(NC(=O)NCc2ccc(F)cc2)c1	-20%	-28%
COc1cc(C(F)(F)F)nc2c(Br)c(C(C)(C)C)nn12	-1%[7.34 µM]	-1%[7.34 µM]
CC(NC(=O)NC12CC3CC(CC(C3)C1)C2)c1ccc2c(c1)OCO2 (centres undefined)	-21%	-15%
Cc1ccc(S(=O)(=O)NC(=O)N2CCCN(Cc3ccc(F)cc3)CC2)cc1	-7%	i
